From PubChem
Sa helicase inh: S. aureus DNA helicase inhibition; 120,000 tested, 0.05% active; purified S. aureus helicase, fluorescence unwinding assay; about half of the hits fall short of the stated cut; inhibition, %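 (tested at about 80 µM)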; AID 485395;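 active = both duplicates at 50% or more, or one of them with a favoured structure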;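 also: 0% = mean of negative control wells and 100% = mean of positive control wells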
MgrA DNA FP: alters Staphylococcus aureus MgrA binding to DNA; AID 602314; fluorescence polarization; 84,000 tested, 0.13% active; inhibition, %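 (about 10 µg/mL by stock and volumes)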;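 active = above 50% in either of two replicates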;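 also: 0% = protein plus DNA without compound and 100% = DNA alone without protein; higher means less MgrA bound to DNA so lower polarization; one replicate is shown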
Numbers without * were called inactive; · = not tested or not shown; + = active, no number; & = joins results of further samples. Some of the compounds tested; count on the stated rates, not on these rows.

Under each structure: Sa helicase inh	MgrA DNA FP
COc1ccc2oc(C(=O)CCC(=O)O)c(N)c2c1
→ 7	-5.3
O=C(COC(=O)C1CC(=O)N(CCc2ccccc2)C1)Nc1cccnc1Cl (stereo not drawn)
→ -7	·
CCN(CC)C(=O)COc1ccc(C2C(C#N)=C(N)Oc3n[nH]c(COC)c32)cc1OC (stereo not drawn)
→ ·	1.9
CCOc1ccc(S(=O)(=O)n2ccc(C)n2)cc1
→ -12	·
Cc1ccccc1NC(=O)CNc1ccccc1N1CCCCC1
→ -4	·
Oc1ccc2nc(N3CCOCC3)sc2c1
→ 9	0.7
COC(=O)c1c(N)n(CCc2ccccc2)c2nc3ccccc3nc12
→ 5	1.6
O=C(CSc1nc2ccccc2c(=O)n1C1CCCCC1)NCc1ccco1
→ -1	0.8
CCNc1nc(N2CCCC2)nc(N2CCC(Cc3ccccc3)CC2)n1
→ -7	·
COC(=O)CSc1cc(Cl)nc2ccc(C)cc12
→ 14	-1.1
Cc1ccc(C2N(c3ccccc3)CCN2c2ccccc2)s1
→ 9	-2.6
COC1=CC(=C2C=CC(=[N+](C)C)C=C2)Oc2ccccc21
→ -10	1.1
COc1ccc(CC(O)CN2CCOCC2)cc1 (stereo not drawn)
→ -1	-2.6
O=C(COc1cccc(Oc2ccccc2)c1)N1CCN(c2ccccc2)CC1
→ -11	-2.1
CC1CC(C)CN(C(=O)CSc2nnc(Cc3ccccc3)o2)C1 (stereo not drawn)
→ 26	·
COC(=O)c1ccccc1NC(=O)CSc1nnnn1-c1ccc2c(c1)OCO2
→ 8	0.9
CC(=O)N1CCCc2cc(S(=O)(=O)CCC(=O)O)ccc21
→ 4	·
CN1CCN(S(=O)(=O)c2ccc(SCC(=O)c3c[nH]c4ccccc34)nc2)CC1
→ 0	·
CCOC(=O)Cn1cnc2c(oc3ccccc32)c1=O
→ 18	·
COC(=O)C1(C(=O)OC)C2C3C4CC5C6C4C2C6C1C53 (stereo not drawn)
→ -7	·
CSc1ccc(Cl)c(C(=O)OCC(=O)N2CCc3ccccc32)c1
→ 16	-0.1
Cc1ccc(OC(=O)CN2C(=O)c3ccccc3C2=O)cc1C
→ -25	·
CCN(CC(=O)NC1CCS(=O)(=O)C1)C(=O)c1cc2ccccc2o1 (stereo not drawn)
→ -1	·
N#Cc1ccc(OCC(=O)NC2CCCC2)cc1
→ -3	-1.1
C/C(=N\NC(N)=O)C1(C)CC2(CC(C)(C)OC2=O)C(=O)O1 (stereo not drawn)
→ -21	·
CC(OC(=O)c1ccccc1OC(F)F)C(N)=O (stereo not drawn)
→ 7	·
Cc1nn(C)c(Cl)c1S(=O)(=O)N(C)C
→ ·	0.0
COC(=O)C1=C(N)C(=O)N(c2ccc(C(=O)OC)cc2)C1
→ 18	3.0
FC(F)(F)c1cccc(N2CCN(C(=S)Nc3ccccc3)CC2)c1
→ 10	1.4
CN(C)c1ccc(/C=c2\sc3nc4ccccc4n3c2=O)cc1
→ -63	·
Cc1nc(COC(=O)[C@H](C(C)C)N2C(=O)c3ccccc3C2=O)cs1
→ 24	·
CCN1CCC(N(C)CCc2ccccc2)CC1
→ -15	-4.2
CCC(C(=O)Nc1ccc(C(=O)N(C)C)cc1)c1ccccc1 (stereo not drawn)
→ -20	·
CCOC(=O)C(C)N1C(=O)S/C(=C/c2ccc(-c3ccccc3C(=O)O)o2)C1=O (stereo not drawn)
→ 8	2.2
CC(=O)NC(C)c1cc(C(C)(C)C)c(O)c(C(C)(C)C)c1 (stereo not drawn)
→ 2	-0.8
CN(CCC#N)C(=O)c1cc2c(s1)-c1ccccc1OC2
→ 18	·
CCc1ccc2nc(Cl)sc2c1
→ 4	·
Cc1nn(CCC#N)c(C)c1Sc1ncccn1
→ ·	-0.2
Clc1ccc(NCc2cccnc2)cc1
→ ·	0.0
O=C(/C=C/c1ccc(Br)o1)NCCCN1CCOCC1
→ -19	0.6
COc1cc(OC)cc(C(=O)NCC(=O)NCc2ccccn2)c1
→ 8	·
O=C1Nc2ccccc2O/C1=C\c1ccc(C(=O)N2CCN(c3ccccn3)CC2)cc1
→ 8	·
C=CCN1C(=O)/C(=C/c2ccco2)S/C1=N/S(=O)(=O)c1ccccc1
→ -15	·
CCOC(=O)Nc1ccc2c(COC(=O)c3cccc(OCc4c(C)noc4C)c3)cc(=O)oc2c1
→ 7	·
Nc1nc(CCC(=O)O)nc(Nc2ccccc2)n1
→ 17	·
CCOc1ccc(S(=O)(=O)N2CCN(C(=O)c3cc(S(=O)(=O)N4CCOCC4)ccc3C)CC2)cc1
→ 13	·
CCCCc1ccc2nc(NC(=O)OC)[nH]c2c1
→ ·	-1.6
CN(CC(=O)Nc1ncn[nH]1)S(=O)(=O)c1ccc(Cl)cc1
→ -8	-1.2
CCc1nc2ccccc2n1CC(O)COc1ccc(Cl)cc1 (stereo not drawn)
→ 9	·
O=C(CCS(=O)(=O)c1cccc2nsnc12)NCc1ccccc1
→ 11	·

The list goes on:
Under each structure: Sa helicase inh	MgrA DNA FP
CON(C)S(=O)(=O)c1ccc(N=Cc2c(O)[nH]c(=O)[nH]c2=O)cc1
→ -8	·
CN1CCC(N(C)S(=O)(=O)c2ccc(F)cc2F)CC1
→ -3	·
O=C(COc1cccc(OCC(=O)Nc2ccccn2)c1)Nc1ccccn1
→ -13	1.6
CC1SCC(=O)N(c2cccc(C(F)(F)F)c2)C1=O (stereo not drawn)
→ ·	-0.4
Oc1ccccc1-c1nnc(COc2ccccc2)o1
→ 10	·
Nn1c(Cc2cccs2)nc2ccccc2c1=O
→ 19	0.4
Cc1oc(-c2ccc(Cl)cc2)nc1CN1CCCC(C(=O)NC2CC2)C1 (stereo not drawn)
→ 12	·
O=C(O)COCC(=O)NC1CCN(Cc2c(F)cccc2Cl)CC1
→ ·	2.8
Cc1cc(Cl)nc(NN)c1C#N
→ 2	1.3
Cc1ccc(NC(=S)NCCO)c(C)c1
→ ·	4.1
COc1cc(Cl)c(C)cc1NC(=O)CN1C(=O)C2CC=CCC2C1=O (stereo not drawn)
→ -6	·
CC(C)Cn1cc(NC(=O)NCC2CCCO2)c2ccccc2c1=O (stereo not drawn)
→ 12	·
S=C1Nc2ccccc2C2CC=NN12 (stereo not drawn)
→ -17	·
CC(Sc1nc(N)cc(=O)[nH]1)C(=O)NCC(=O)Nc1ccc(F)c(F)c1F (stereo not drawn)
→ 9	·
S=C(Nc1ccc(Cl)cc1Cl)NC(Cn1ccnc1)c1ccccc1 (stereo not drawn)
→ ·	5.8
NCc1csc2ccccc12
→ ·	-0.2
CSc1nnc(CSc2ncccn2)n1C
→ -8	·
COc1ccccc1CNC(=S)N(C)C
→ ·	0.0
Cc1ccc(NC(=O)c2c(F)cccc2Cl)c(C(=O)Nc2ccc(F)cc2)c1
→ ·	0.9
CCOC(=O)COc1ccc(C23CC4CC(CC(C4)C2)C3)cc1
→ -16	1.2
CC(C)N1C(=O)S/C(=C/c2cccnc2)C1=O
→ 3	13
COc1ccc(N=c2scc(-c3ccc(O)c(C(N)=O)c3)n2CC2CCCO2)cc1 (stereo not drawn)
→ -2	·
Cc1cccc(C(=O)N2CCN(c3ccc(N4CCCCCC4)nn3)CC2)c1
→ 12	·
CC(C)S(=O)(=O)c1csc(C(=O)OCC(=O)C(C)(C)C)c1N
→ 22	·
C=CCNC(=S)Nc1ccn(Cc2ccccc2C)n1
→ 10	2.7
O=C(Nc1c(-c2cccs2)nc2ccccn12)c1c(F)cccc1F
→ -5	·
OC(COc1ccc(C23CC4CC(CC(C4)C2)C3)cc1)CN1CCCCC1 (stereo not drawn)
→ ·	2.2
N#CC1=C(N)OC(C2CC2)=C(C#N)C1c1ccccc1Cl (stereo not drawn)
→ ·	0.1
Cc1nc(C(F)(F)F)ccc1C(=O)NC1CCCc2ccccc21 (stereo not drawn)
→ ·	-1.4
CC(=O)NCCc1nc2ccccc2n1Cc1ccccc1
→ 4	·

The last six records of the part above lead into the next:
Under each structure: Sa helicase inh	MgrA DNA FP
C=CCNC(=S)Nc1ccn(Cc2ccccc2C)n1
→ 10	2.7
O=C(Nc1c(-c2cccs2)nc2ccccn12)c1c(F)cccc1F
→ -5	·
OC(COc1ccc(C23CC4CC(CC(C4)C2)C3)cc1)CN1CCCCC1 (stereo not drawn)
→ ·	2.2
N#CC1=C(N)OC(C2CC2)=C(C#N)C1c1ccccc1Cl (stereo not drawn)
→ ·	0.1
Cc1nc(C(F)(F)F)ccc1C(=O)NC1CCCc2ccccc21 (stereo not drawn)
→ ·	-1.4
CC(=O)NCCc1nc2ccccc2n1Cc1ccccc1
→ 4	·
Cc1ccc(NC(=S)NC(C)(C)C)c(C)c1
→ ·	-1.2
O=C(COC(=O)c1ccccc1OCc1ccccc1)c1ccc(F)cc1
→ 0	-1.8
OCCNC(=S)Nc1ccccc1
→ 12&-4	0.5
NC(=O)C1CCN(CC(=O)N2c3ccccc3CCc3ccccc32)CC1
→ 5	-1.2
COc1ccc(CCNC(=O)COc2ccc3c(=O)c(-c4ccccc4)coc3c2)cc1OC
→ -6	0.4
CCOC(=O)c1ccc(N2C(=O)CSCC2=O)cc1
→ ·	4.2
Cc1nc(-c2c(C(F)(F)F)noc2-c2ccc(O)cc2O)cs1
→ -23	·
CCOC(=O)c1nc(NNC(C)=O)sc1C
→ -5	0.7
Cc1csc(CC(N)=O)n1
→ -29	0.3
CCC(=O)Nc1ccc(N2CCCCC2)cc1
→ 2	-2.5
Cc1cc(C)cc(NS(=O)(=O)c2ccc3c(c2)c(=O)n(C)c(=O)n3C)c1
→ 15	·
CC1CCCC(C)N1C(=O)CN1CCC(N2CCCCC2)CC1 (stereo not drawn)
→ 8	14
COc1cc(S(=O)(=O)N2CCOCC2)cc(C(=O)OCC(=O)N2CCCc3ccccc32)c1OC
→ -7	·
COc1ccc(CN2CCN(C(=O)C3CCN(S(=O)(=O)c4cnc[nH]4)CC3)CC2)c(OC)c1OC
→ -30	·
NNC(=O)CNC(=O)c1ccccc1
→ ·	-0.1
CNC(=O)CN1C(=O)CSc2ncccc21
→ 6	·
COc1ccc(CCNS(=O)(=O)c2cc(Cl)c(Cl)cc2Cl)cc1OC
→ ·	-2.2
COc1ccc2nc3sc(C(=O)N(C)c4cccc(C(F)(F)F)c4)cc3cc2c1
→ 6	-0.9
COc1cc(C=C2C(=O)NC(=O)NC2=O)ccc1OCc1ccc(Cl)cc1Cl
→ ·	26
CNC(=O)N1CCn2cccc2C1C(C)C (stereo not drawn)
→ 5	·
O=C(NCC1CN(Cc2ccccc2)CCO1)c1ccc(N2CCOCC2)nc1 (stereo not drawn)
→ ·	-1.7
O=C(Nc1sc2c(c1C(=O)N1CCOCC1)CCCCC2)c1ccccc1
→ -1	0.1
CC1CC(N(C(=O)C(C)C)c2ccccc2)c2ccccc2N1 (stereo not drawn)
→ -15	0.3
O=C1CC(c2ccc(S(=O)(=O)N3CCOC(COc4ccccc4)C3)cc2)CN1 (stereo not drawn)
→ 13	0.8
CC(C)C(C(=O)OC1CSCC1NC(=O)c1ccccc1)N1C(=O)c2ccccc2C1=O (stereo not drawn)
→ 4	-3.0
O=C(Nc1nnc(-c2ccccc2)o1)c1sc2ccccc2c1Cl
→ 8	·
CC1=C2C(=NCCN1)C(=O)N(c1ccc(F)cc1)C2c1ccccn1 (stereo not drawn)
→ -133	·
Cc1cc(Nc2cccc(C(F)(F)F)c2)nc2ccc(NC(=O)Cc3cccs3)cc12
→ 9	-1.9
Cc1c(C(=O)OC(C)C)c2cc(O)ccc2n1-c1ccccc1
→ 7	-0.2
Clc1ccc2oc(-c3ccccc3)cc(=NCCN3CCOCC3)c2c1
→ 15	1.7
COc1cc(OC)c(C(=S)N2CCN(CCO)CC2)cc1OC
→ 18	7.2
CCn1cc(C(=O)N(Cc2ccc(N(C)C)cc2)Cc2ccco2)c(=O)c2ccc(C)nc21
→ 3	3.2
COc1ccccc1OCC(=O)Nn1c(=S)[nH]c2ncccc2c1=O
→ -14	·
COC(CNC(=O)c1ccc(-n2c(C)cc3c2CCCC3)cc1)OC
→ -20	·
CC(=O)N1CC(c2ccccc2)CC1=O (stereo not drawn)
→ 0	·
COc1cc(C(=O)N2CCc3ccccc32)cc(OC)c1OC
→ -6	2.4
COC(=O)c1cnc(N2CCCN(C(=O)NC3CCCCC3)CC2)nc1C(F)(F)F
→ 4	·
Cc1ccc(S(=O)(=O)NCc2ccc3c(c2)cc(C)n3C)cc1
→ 15	·
COc1ccc(CNC(=O)c2ccc(N(C)S(C)(=O)=O)cc2)cc1
→ -2	-2.4
Cc1ccc(S(=O)(=O)Nc2ccc3c(c2)OCO3)cc1C(=O)N1CCOCC1
→ 1	-5.0
O=C(CSCc1ccccc1)Nc1ccc(-c2nc3cccnc3s2)cc1
→ 11	1.5
O=C(Nc1ccc(Cl)cc1Cl)ONC1=NCCCCC1
→ 3	·
Cc1ccccc1Nc1nc(N)nc(CN(C)Cc2ccc3c(c2)OCCO3)n1
→ -9	·
N#Cc1c2c(c(-c3ccccc3)[nH]c1=O)CCCC2
→ ·	-1.5
COC(=O)C1=C(Nc2ccc(F)c(Cl)c2)CSC1
→ ·	-2.4
O=C(CSc1nnc(-c2ccncc2)o1)NCc1ccccc1
→ -21	·
COc1cccc2c1C(=O)c1c(O)c3c(c(O)c1C2=O)C[C@@](O)(C(=O)CO)C[C@@H]3O[C@H]1C[C@H](N)[C@H](O)[C@H](C)O1
→ ·	+
CCn1c(COc2cccc3cccnc23)nnc1SCC(=O)OC
→ 2	-2.3
CN(Cc1ccccc1NCC(=O)NC1CCCC1)C1CCCCC1
→ -4	·
CC1(C)CC(=O)C(Sc2ccc(Cl)cc2)=C(N2CCOCC2)C1
→ -4	·

Quoted from above, four compounds:
Under each structure: Sa helicase inh	MgrA DNA FP
N#Cc1c2c(c(-c3ccccc3)[nH]c1=O)CCCC2
→ ·	-1.5
COC(=O)C1=C(Nc2ccc(F)c(Cl)c2)CSC1
→ ·	-2.4
O=C(CSc1nnc(-c2ccncc2)o1)NCc1ccccc1
→ -21	·
COc1cccc2c1C(=O)c1c(O)c3c(c(O)c1C2=O)C[C@@](O)(C(=O)CO)C[C@@H]3O[C@H]1C[C@H](N)[C@H](O)[C@H](C)O1
→ ·	+
